# Sfp PPTase inh – inhibitors of Bacillus subtilis Sfp phosphopantetheinyl transferase; Q9F4F7; Biochemical Sfp PPTase activity, qHTS; Potency, µM, inactives show max response, negative = inhibition, hits mostly inhibitors; hit rate 3.5% among 310,000; AID 1490; active means well fitted inhibition curve with a large enough effect; inconclusive means small, poorly fitted or top-dose-only effect, or another doubt; inactive means no such curve, though single readings can be large or run the other way;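 further: the enzyme is Sfp with the accession as filed and its product quenches rhodamine fluorescence; potency means the concentration at half of the fitted maximal effect; 0% = enzyme reaction without inhibitor and -100% = no enzyme wells; top concentration of the series not given in the record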
#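 With Hepes-Na pH 7.6 buffer containing 10 mM MgCl2, Sfp (15 nM) modified BHQ-2-YbbR (12.5 uM) using rhodamine-CoA (5 uM). Two reads 30 minutes apart at 525/598 nm yielded each well's rate.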
# TRPV1 potentiator – enhances activation of the human vanilloid receptor TRPV1. Q8NER1. TRPV1-expressing cells, Fluo-8 calcium influx, capsaicin EC20 potentiation; host cell line not named in the record; control for the full effect not named in the record. potentiation, % at 8.33 µM. hit rate 0.02% among 320,000. AID 540277; active means potentiation above 80%; inconclusive means 30% to 80%; inactive means below 30%; further: 0% is about no effect
# Target sequence (Q8NER1 whole entry, looked up): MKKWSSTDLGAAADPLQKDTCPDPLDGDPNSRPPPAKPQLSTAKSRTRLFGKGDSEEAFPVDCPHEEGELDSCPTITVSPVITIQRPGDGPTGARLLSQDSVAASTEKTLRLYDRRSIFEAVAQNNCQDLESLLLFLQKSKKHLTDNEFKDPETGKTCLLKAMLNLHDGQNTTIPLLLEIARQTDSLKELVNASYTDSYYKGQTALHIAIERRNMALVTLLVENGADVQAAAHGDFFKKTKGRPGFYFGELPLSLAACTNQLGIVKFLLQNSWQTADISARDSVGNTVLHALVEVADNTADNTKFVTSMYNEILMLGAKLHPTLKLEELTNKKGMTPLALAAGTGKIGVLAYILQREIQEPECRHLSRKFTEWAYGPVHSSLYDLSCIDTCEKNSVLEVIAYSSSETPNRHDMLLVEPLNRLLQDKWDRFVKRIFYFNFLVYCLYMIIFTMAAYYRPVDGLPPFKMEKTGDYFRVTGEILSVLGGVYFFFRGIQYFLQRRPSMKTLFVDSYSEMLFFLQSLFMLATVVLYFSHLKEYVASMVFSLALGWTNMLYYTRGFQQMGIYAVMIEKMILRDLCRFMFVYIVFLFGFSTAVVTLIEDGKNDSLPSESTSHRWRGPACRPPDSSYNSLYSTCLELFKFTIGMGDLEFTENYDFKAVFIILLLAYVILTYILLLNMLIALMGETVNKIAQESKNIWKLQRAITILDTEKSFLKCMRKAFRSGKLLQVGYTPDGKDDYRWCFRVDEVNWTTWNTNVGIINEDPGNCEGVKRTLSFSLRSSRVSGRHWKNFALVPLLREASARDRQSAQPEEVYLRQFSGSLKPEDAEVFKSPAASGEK
#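 Cells expressing TRPV1 were dye-loaded with Fluo-8 and read kinetically: 10 s baseline, 3 min after compound (agonist portion), then 2 min after EC20 capsaicin (allosteric enhancer portion). Calcium-bound dye fluorescence at 480/520 nm.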
# Menin-MLL FL inh – inhibitors of human menin-MLL interaction, wild-type MLL peptide | Fluorescence polarization, fluorescein-MLL peptide displacement from menin | FP activity change, % at 61.4 µM | 290,000 tested, under 10 active; inconclusive = falling polarisation curve, or a change in total fluorescence; inactive = total fluorescence flat and polarisation flat or rising; no compound was filed as active; the % refers to the polarisation; negative = inhibition;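 further: % of control where 0% means no effect; inhibitors lower the polarisation; unlabelled MLL peptide was the positive control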
# gsp antag – gsp mutant antagonism | hit rate 0.4% among 340,000 | gsp-mutant cells, cAMP HTRF, 30 min; control for the full effect not named in the record | Potency, µM (titrated, usually from 76.9 µM), without a hit: at the highest dose activity change, negative = inhibition, actives largely listed as inhibitors; active = falling curve of any shape with a large fitted effect; inconclusive = falling curve, mostly with a smaller effect; inactive = flat or rising curve; cell line not stated here;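 further: intracellular cAMP measured with PDE inhibitor Ro 20-1724 present during compound exposure; potency means the concentration at half of the fitted maximal effect; on the % scale 0 is the no-effect control and ±100 the full control effect; nearly all actives have a fitted effect of over 65% in size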
#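 HTRF cAMP measurement after 30 min RT detection following 30 min, 37C compound treatment alongside […] (added as 300 uM solution) in G418-selected cells seeded at 2000/well and grown 16–24 h.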
# gsp agonist – agonists of gsp mutant (McCune-Albright syndrome) | hit rate 0.13% among 340,000 | gsp mutant cells, cAMP HTRF, 30 min; control for the full effect not named in the record | Potency, µM (highest dose often 76.9 µM), without a hit: top-dose activation (cAMP increase), hits mostly activators | AID 624287; active = well fitted activation curve with a large enough effect; inconclusive = small, poorly fitted or top-dose-only effect, or another doubt; inactive = no such curve, though single readings can be large or run the other way; cell line not stated here;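 further: phosphodiesterase inhibitor Ro 20-1724 added with compounds to block cAMP breakdown; potency means the concentration at half of the fitted maximal effect; nearly all actives have a fitted effect of over 60% in size; about a fifth of the inactives were tested at one dose only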
#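 Cells in DMEM/10% FBS with G418 were pretreated with compounds in DMSO plus […] (300 uM stock) for 30 min at 37C. cAMP was measured by HTRF (cAMP-d2 plus anti-cAMP antibody-K) after 30 min at room temperature.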
# TRPML1 inh – human mucolipin-1 channel inhibition. activity change, negative = inhibition, % (concentration not given with the values). hit rate 0.02% among 390,000. TRPML1-inducible cells, Ca2+ dye fluorescence, FDSS; hits give low values; inhibition of EC80 agonist-evoked calcium signal. Q9GZU1; in the data active means activity change below about -50%; inconclusive means about -30% to -50%; inactive means above about -30%;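 further: stimulus is agonist 54-4 at its EC80 concentration; on the % scale 0 is the no-effect control and ±100 the full control effect; compound concentration not given in the record; the text of the record puts the active cut at -80%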
#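 Tet-induced TRPML1-DL cells loaded with Ca8 no-wash calcium dye were read kinetically on FDSS. Compound addition was followed by EC80 agonist 54-4 (4 uM final); inhibition was read over 110 s.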
# ClpP mod – qHTS Assay for Activators of ClpP. purified B. subtilis ClpP, FRET peptide cleavage, 20 min. Potency, µM (highest dose often 57.5 µM), without a hit: at the highest dose activity change, negative = active. hit rate 1.9% among 340,000. AID 651965, 2013; active = well fitted falling curve with a large enough effect; inconclusive = small, poorly fitted or top-dose-only effect; inactive = no such curve, though single readings can be large or run the other way; further: potency means the concentration at half of the fitted maximal effect; the source files actives as falling curves though it sought activators and does not explain the sign; nearly all actives have a fitted effect of over 65% in size; many hits overshoot -100%
# Target sequence (P80244 whole entry, looked up): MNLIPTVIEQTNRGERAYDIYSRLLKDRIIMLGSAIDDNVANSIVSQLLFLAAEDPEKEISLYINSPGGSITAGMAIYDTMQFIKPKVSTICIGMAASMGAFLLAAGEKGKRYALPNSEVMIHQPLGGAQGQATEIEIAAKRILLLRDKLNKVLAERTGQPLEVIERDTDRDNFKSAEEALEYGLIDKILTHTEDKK
#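 ClpP 10 microg/mL final, pH 8 Tris/KCl buffer with BSA, glycerol, Tween-20; compound pinned in; FRET-FV substrate; RT 20 min; Ex320/Em430; ΔFRET vs ADEP 5.8 microM, DMSO, no enzyme.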
# Active calls of the source: *; ? = inconclusive; nt = not tested or not shown; & = joins results of further samples; [ ] = dose if it differs, or a comment.
1) CC(C)C(c1nnnn1C(C)(C)C)N1CCOCC1 (configuration not stated)
2) CCCNC(=O)CN1CCN(c2cc3ccccc3c(Cl)n2)CC1
3) CC1CCCC(NC(=S)NC(=O)c2ccco2)C1C (configuration not stated)
4) CCCCCN(C(=O)CCC(=O)OCCOc1cccc(Cl)c1)c1c(N)n(CCCC)c(=O)[nH]c1=O
5) O=C1NC(=Nc2cccnc2)S/C1=C\c1cccc(F)c1

Assay by compound,1,2,3,4,5
Sfp PPTase inh,4%,7%,nt,nt,1%
TRPV1 potentiator,-1,16,nt,2,nt
Menin-MLL FL inh,5.3,0.6,nt,nt,?
gsp antag,-7%,-17%,0%,3%,-9%
gsp agonist,-7%,-15%,-11%,7%,-11%[15.4 µM]
TRPML1 inh,41,18,-7,-10,1
ClpP mod,4.9%,nt,-4.5%,0.8%,0.2%

6) O=C(CCCc1c[nH]c2ccccc12)NCc1ccccc1C(F)(F)F
7) CC(NC(=O)c1ccco1)C(c1cccs1)N1CCN(c2ccccc2F)CC1 (configuration not stated)
8) C/C(=N\NC(=O)c1nnn(-c2nonc2N)c1CN(C)c1ccccc1)c1ccc(O)cc1
9) CCn1cc(CNc2nc3nonc3nc2N2CCCCC2)cn1
10) CCOc1ccc(NC(=O)Cc2ccccc2)cc1

Assay by compound,6,7,8,9,10
Sfp PPTase inh,4%,4%,1%,6%,-12%
TRPV1 potentiator,-6,-34,9,8,-1
Menin-MLL FL inh,0.5,0.4,-6.7,-1.2,4.4
gsp antag,-17%,?,-30%,-12%,13%
gsp agonist,10%,12%,-18%,?,-32%[inhibitor]
TRPML1 inh,4,-13,-5,29,41
ClpP mod,0.6%,-2.3%,0.5%,0.5%,-3.1%

11) Cc1c([N+](=O)[O-])ccc(S(=O)(=O)N2CCC(C(N)=O)CC2)c1C
12) O=C(NCCCN1CCOCC1)c1ccc(-n2nc(C(F)(F)F)cc2-c2cccs2)cc1
13) CCOC(=O)C(C(=O)OCC)C(=O)c1cccc2ccc3ccccc3c12
14) O=c1c(-c2c(O)cc(O)c3c2O[C@H](c2ccc(O)cc2)CC3)c(-c2ccc(O)cc2)oc2cc(O)cc(O)c12
15) O=c1c2ccccc2nc2n1CCCS2

Assay by compound,11,12,13,14,15
Sfp PPTase inh,-3%,-2%,nt,nt,6%
TRPV1 potentiator,-1,-2,nt,nt,6
Menin-MLL FL inh,0.3,3.3,nt,nt,-0.4
gsp antag,11%,0%,nt,-17%,1%
gsp agonist,1%,4%,11%,11%,?
TRPML1 inh,-7,3,-4,25,12
ClpP mod,-3.5%,-3.0%,-5.0%,-0.5%,-5.5%

# Shown as tab-separated lines: entries from further up.
No.	molecule	Sfp PPTase inh	TRPV1 potentiator	Menin-MLL FL inh	gsp antag	gsp agonist	TRPML1 inh	ClpP mod
2	CCCNC(=O)CN1CCN(c2cc3ccccc3c(Cl)n2)CC1	7%	16	0.6	-17%	-15%	18	nt
3	CC1CCCC(NC(=S)NC(=O)c2ccco2)C1C (configuration not stated)	nt	nt	nt	0%	-11%	-7	-4.5%
4	CCCCCN(C(=O)CCC(=O)OCCOc1cccc(Cl)c1)c1c(N)n(CCCC)c(=O)[nH]c1=O	nt	2	nt	3%	7%	-10	0.8%
5	O=C1NC(=Nc2cccnc2)S/C1=C\c1cccc(F)c1	1%	nt	?	-9%	-11%[15.4 µM]	1	0.2%
6	O=C(CCCc1c[nH]c2ccccc12)NCc1ccccc1C(F)(F)F	4%	-6	0.5	-17%	10%	4	0.6%
7	CC(NC(=O)c1ccco1)C(c1cccs1)N1CCN(c2ccccc2F)CC1 (configuration not stated)	4%	-34	0.4	?	12%	-13	-2.3%

# Further results
16) CCOC(=O)c1cc(-c2ccccc2)n(CC(=O)Nc2cccc(OC)c2)c1C
17) COCc1cc(=O)[nH]c2cc(NC(=O)c3cccc(OC)c3)c(C)cc12
18) COc1ccc(S(=O)(=O)N2Cc3ccccc3CC2C(=O)O)cc1 (configuration not stated)
19) Cc1cnc(NC(=O)c2sc(Nc3ccccc3)nc2N)o1
20) O=C(O)c1ccccc1C(=O)Nc1ccc(Br)c2cccnc12

Assay by compound,16,17,18,19,20
Sfp PPTase inh,-3%,2%,-16%,2%,40µM*
TRPV1 potentiator,10,-7,-5,-1,0
Menin-MLL FL inh,-4.2,-8.4,0.2,0.3,-3.3
gsp antag,1%,13%,-9%,-6%,7%
gsp agonist,16%,?,19%,15%,1%
TRPML1 inh,1,11,16,5,-7&5
ClpP mod,1.9%,nt,-2.8%,-1.6%,-3.6%

21) COc1ccc(C)cc1COC(=O)c1[nH]c(C)c(C(C)=O)c1C
22) COCCN1C(=O)C(=O)/C(=C(/O)c2ccc(S(=O)(=O)N3CCCCC3)cc2)C1c1ccc(O)c(OC)c1 (configuration not stated)
23) CCOC(=O)CSC1=C(C#N)C(c2sccc2C)C(C(C)=O)=C(C)N1 (configuration not stated)
24) CC(=O)NCC(=O)N(C)C(C(=O)Nc1ccc2c(c1)OCCO2)c1ccc(C)cc1 (configuration not stated)
25) CC(Sc1ccccc1)C(=O)N1CCN(S(=O)(=O)c2cccc(Br)c2)CC1 (configuration not stated)

Assay by compound,21,22,23,24,25
Sfp PPTase inh,13%,0%,?,19%,-2%
TRPV1 potentiator,-4,11,-16,12,-10
Menin-MLL FL inh,4.9,-3.8,1.1,-4.0,2.1
gsp antag,-4%,14%,-6%,8%,-32%
gsp agonist,-48%[inhibitor],-11%,-2%,-32%[15.4 µM],6%[15.4 µM]
TRPML1 inh,-12,-22,-13,-3,-4
ClpP mod,nt,-1.7%,0.1%,nt,-0.4%

26) CC(C)(C)C1CCc2c(sc3c2C(=O)NC(c2ccco2)N3)C1 (configuration not stated)
27) O=C(C(=O)N1CCOCC1)c1cn(CCOc2ccccc2)c2ccccc12
28) C=CCN(c1ccccc1C(=O)O)S(=O)(=O)/C=C/c1ccccc1
29) O=C(CSCc1c(Cl)cccc1Cl)N1CCOCC1
30) COc1ccccc1-c1c(C)oc2cc(OCC(=O)OCc3ccccc3)ccc2c1=O

Assay by compound,26,27,28,29,30
Sfp PPTase inh,56µM*,-12%,29%,5%,1%
TRPV1 potentiator,1,-18,-3,-6,-11
Menin-MLL FL inh,1.0,-0.4,-1.2,1.1,10
gsp antag,-21%,2%,16%,3%,?
gsp agonist,-6%,-54%[inhibitor],-7%[15.4 µM],-10%,0%
TRPML1 inh,-8,33,6,-6,45
ClpP mod,-11%,nt,nt,nt,1.0%

31) CC(=O)N1N=C(c2cccs2)CC1c1cccc([N+](=O)[O-])c1 (configuration not stated)
32) CCn1c2ccccc2c2cc(NC(=O)c3cccc(OC)c3)ccc21
33) CCO[C@@H]1OC(C(=O)NCc2nc3ccccc3[nH]2)=C[C@H](C)[C@H]1CCCO
34) Cc1noc(C)c1CSCC(=O)OCC(=O)NC1CCCCC1
35) Cn1c2c(c(=O)n(C)c1=O)C(c1ccc(C(F)(F)F)cc1)CC(=O)N2 (configuration not stated)

Assay by compound,31,32,33,34,35
Sfp PPTase inh,-11%,10%,-6%,5%,nt
TRPV1 potentiator,-4,25,11,7,nt
Menin-MLL FL inh,-9.2,1.7,0.5,1.3,nt
gsp antag,-1%,-8%,-10%,7%,6%
gsp agonist,-6%,-27%,0%,-25%,nt
TRPML1 inh,-1,13,-11,-4,-7
ClpP mod,-6.7%,-11%,-4.7%,-0.1%,-4.7%

36) C=CCn1cc(C(=O)OC)c(=O)c2cc(S(=O)(=O)N3CCC(C)CC3)ccc21
37) CCOC(=O)Cn1nnnc1C(C(C)C)N(Cc1cc2c(C)cc(C)cc2[nH]c1=O)C1CCCC1 (configuration not stated)
38) CC1CCCC(NC(=O)COC(=O)c2cc3ccccc3oc2=O)C1C (configuration not stated)
39) Oc1ccc(C=Nc2ccc(N3CCOCC3)cc2)c(O)c1
40) CC(C)(C)OC(=O)N(CCc1ccccc1)Cc1cccc(OCc2cccc(NC(=O)c3ccccc3)c2)c1

Assay by compound,36,37,38,39,40
Sfp PPTase inh,12%,?,nt,-7%,nt
TRPV1 potentiator,-14,-2,nt,2,nt
Menin-MLL FL inh,4.3,-3.1,nt,?,nt
gsp antag,0%,-6%,11%,-35%,1%
gsp agonist,5%,0%,-44%,-1%[15.4 µM],nt
TRPML1 inh,-4,48,10,8,16
ClpP mod,-2.5%,-6.9%,?,1.5%,?

41) COc1ccc(NC(=O)CCCc2ccc(OC)c(C)c2)cc1
42) CN(C)C(=O)c1cn(-c2ccccc2)nc1-c1cc2ccccc2oc1=O
43) CC(C)(C)NS(=O)(=O)c1ccc(CCC(=O)O)cc1
44) Cn1[nH]c(CSc2ccc(Cl)cc2)cc1=O
45) CCOC(=O)C1CCN(C(=O)c2cc(S(=O)(=O)N3CCc4ccccc43)ccc2OC)CC1

Assay by compound,41,42,43,44,45
Sfp PPTase inh,-3%,-7%,17%,8%,nt
TRPV1 potentiator,-12,5,2,3,0
Menin-MLL FL inh,0.3,-1.6,-0.6,2.3,nt
gsp antag,-3%,5%,-2%,-7%,-18%
gsp agonist,0%[15.4 µM],-26%,2%,0%[15.4 µM],-1%
TRPML1 inh,7,0,-5,-4,-24
ClpP mod,0.1%,nt,0.4%,nt,0.6%

46) CC1CCCCC1NC(=S)NC(=O)c1sc2ccccc2c1Cl (configuration not stated)
47) CCc1ccc(NC(=O)Cn2c3[n+](c4c(F)c(F)ccc42)CCCCC3)cc1
48) Cc1ccnc(NS(=O)(=O)c2ccc(N3C(=O)Nc4ccccc4N3O)cc2)c1
49) CCc1nnc(NC(=O)CSc2nnc(C)c(=O)n2N)s1
50) COc1cc(OC)c(NC(=O)CC2SC(N)=NC2=O)cc1Cl (configuration not stated)
51) O=C(NCCOC(=O)c1ccc(C(=O)OCCNC(=O)c2cccnc2)s1)c1cccnc1

Assay by compound,46,47,48,49,50,51
Sfp PPTase inh,32µM*,?,21%,5%,nt,6%
TRPV1 potentiator,-1,6,3,3,nt,-4
Menin-MLL FL inh,4.8,2.6,-1.6,nt,nt,-4.1
gsp antag,-12%,6%,7%,-6%,nt,5%
gsp agonist,12%[15.4 µM],?,?,-16%,-17%,-27%
TRPML1 inh,0,-4,20,-9,14,-11
ClpP mod,-0.1%,nt,-22%,-1.8%,2.1%,-1.2%

# Compound activity (PubChem BioAssay)
